# Ab BasE inh = inhibitors of Acinetobacter baumannii siderophore enzyme BasE; purified BasE, fluorescence polarization binding displacement; inhibition, % (no concentration beside the values); 84,000 tested, 0.1% active;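 active = both replicates above 25% with normal brightness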;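 note: 0% = negative plate control signal and 100% = positive plate control signal; stock transfer was 100 nL into about 30 µL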
# LANA-nucl inh = inhibitors of KSHV LANA binding to nucleosomes; FITC-LANA1-23 / chicken nucleosome fluorescence polarization; stronger effect = lower value; z-score (no concentration beside the values); 51,000 tested, 0.3% active; AID 720717;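 active = both repeat wells score below -2 in polarization z-score versus plate sample wells, excluding overly bright wells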;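 note: 100 nL library stock added to about 30 µL; numbers are from one replicate; some results filed as inactive read as strong as hits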
#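 test system = FITC-LANA peptide and chicken nucleosomes | amount = 240 nM purified chicken nucleosomes (480 nM peptide binding sites), final | reagent = 50 nM FITC-LANA1-23 probe | medium = TEN-BT buffer, pH 7.5 | doses = single compound addition by pin transfer, 100 nL per well | timing = 10–45 min, room temperature | detection = fluorescence polarization | repeats = duplicate plates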
# An asterisk follows results filed as active; / = no result given; & = joins results of further samples.
item	SMILES	Ab BasE inh	LANA-nucl inh
1	CCC(=O)NC1CCC(c2ccccc2)CC1 (stereo unspecified)	1.7	-0.0615
2	Cc1nn(C(C)(C)C)c(C)c1/C=N/OC(=O)c1cccs1	-2.9	1.69
3	CC1C2CC(CC2=NNC(=O)c2cccs2)C1(C)C (stereo unspecified)	0.3	1.28
4	CC1(C)CC(=O)C2=C(C1)N(Cc1ccccc1)CN(Cc1ccco1)C2	-2.2	0.347
5	O=C(Nc1ccccn1)c1ccccc1O	0.0	-0.703
6	CNC(=O)c1c(I)c(C(=O)NCC(=O)Nc2c(I)c(C(=O)O)c(I)c(C(=O)NCCO)c2I)c(I)c(N(C)C(C)=O)c1I	-0.3	-0.273
7	O=C(/C=C/c1ccc(Br)o1)OCc1cc(=O)oc2cc3c(cc12)CCC3	1.2	/
8	CC(C)S(=O)(=O)c1csc(NC(=O)N2CCCCC2)c1Cl	0.5	/
9	O=C(O)c1nn(CCO)c(=O)c2ccccc12	1.6	/
10	COc1ccc(NC(=S)Nc2ccn(C)n2)c(OC)c1	2.3	-1.03

# Six of the compounds above, with one line to a screen.
7	O=C(/C=C/c1ccc(Br)o1)OCc1cc(=O)oc2cc3c(cc12)CCC3
10	COc1ccc(NC(=S)Nc2ccn(C)n2)c(OC)c1
8	CC(C)S(=O)(=O)c1csc(NC(=O)N2CCCCC2)c1Cl
3	CC1C2CC(CC2=NNC(=O)c2cccs2)C1(C)C (stereo unspecified)
2	Cc1nn(C(C)(C)C)c(C)c1/C=N/OC(=O)c1cccs1
4	CC1(C)CC(=O)C2=C(C1)N(Cc1ccccc1)CN(Cc1ccco1)C2
entry no. | 7 | 10 | 8 | 3 | 2 | 4
Ab BasE inh | 1.2 | 2.3 | 0.5 | 0.3 | -2.9 | -2.2
LANA-nucl inh | / | -1.03 | / | 1.28 | 1.69 | 0.347

# Next section.
item	SMILES	Ab BasE inh	LANA-nucl inh
11	C[N+]1(CCn2ccc3ccccc32)CCCCC1	3.0	/
12	CCOC(=O)c1c(CN2CCC(C)CC2)oc2ccc(OC)cc12	-1.4	0.247
13	Cc1ccc(NC(=O)C2CCCO2)cc1 (stereo unspecified)	-9.7	/
14	COc1ccc(-n2c3nc4ccccc4nc3c3c(=N)oc(C)nc32)cc1	1.4	/
15	NS(=O)(=O)c1ccc(NC(=O)C2CCCO2)cc1 (stereo unspecified)	-0.8	-0.371
16	O=C(CSc1nnc(-c2ccc(Cl)s2)o1)N1CCCc2ccccc21	0.7	-0.211
17	Cc1cc(C)n2nc(C(=O)N(C/C=C/c3ccccc3)c3ccc4c(c3)OCCO4)nc2n1	-2.3	/
18	CN(C)c1nc(-c2ccccc2)c(CC(=O)O)s1	1.4	/
19	O=C1CC(c2ccc(Br)cc2)C2=C(CCCC2=O)N1 (stereo unspecified)	-3.8	0.903
20	O=C(Cn1cncn1)NCCc1ccccc1	/	0.0735
21	Fc1ccc(CN2CCCN(Cc3ccc(F)cc3)C2c2ccco2)cc1	/	-1.35
22	CCCCN1C(=O)/C(=C2\SC(=Nc3ccc(Cl)cc3)N(C)C2=O)c2ccccc21	-0.5	/
23	Cc1[nH]c(=O)[nH]c(=O)c1/C=C/C(=O)O	2.2	/
24	CCc1ccc(C2C(C#N)=C(N)OC(C)=C2C(=O)OC)cc1 (stereo unspecified)	3.0	-0.0175
25	CCOc1ccc(NC(=O)N(Cc2ccc(C)cc2)Cc2ccccn2)cc1	1.4	0.116
26	N#CCC(=O)c1ccc(N)cc1	2.7	-0.14
27	Cc1nn(C2CCS(=O)(=O)C2)c(Cl)c1CNCC(=O)Nc1ccc(F)c(F)c1 (stereo unspecified)	-2.3	/
28	CCn1nc(C)c(NC(=S)NCC2CCCO2)c1C (stereo unspecified)	1.3	0.405
29	CC(C)CC(NC(=O)Nc1cccc2ccccc12)C(=O)O (stereo unspecified)	-3.0	/
30	CCC(Sc1nc2ncccc2[nH]1)C(=O)N1CCCCCC1 (stereo unspecified)	-0.3	-0.292
31	CCOC(=O)c1oc2ccccc2c1COC(=O)C12CCC(=O)N1c1ccccc1S2 (stereo unspecified)	-0.1	/
32	CCc1ccc(N2C(N)=C(C#N)C3(C(=O)Nc4ccccc43)C3=C2CCCC3=O)cc1 (stereo unspecified)	1.6	-1.23
33	Cc1cc(=O)n2c(n1)NC(Nc1ccc(C(C)C)cc1)=NC2c1ccccc1 (stereo unspecified)	-0.6	0.384
34	Cc1nc(-c2ccccc2)sc1C(=O)NCc1ccco1	0.5	-0.744
35	Cc1ccc2[nH]c3c(c2c1)CCC/C3=N/O	0.4	0.0565
36	CN1C2CCC1CC(NC(=O)c1cccc(C(F)(F)F)c1)C2 (stereo unspecified)	/	0.734
37	O=S(=O)(Nc1ccc(S(=O)(=O)Nc2ncccn2)cc1)c1ccccc1	1.6	0.204
38	CC(C)NS(=O)(=O)Cc1ccccc1C#N	1.5	/
39	CNc1c(NS(=O)(=O)c2cccc(C#N)c2)c(=O)oc2ccccc12	-0.2	-0.356
40	Cc1coc2cc3oc(=O)c(CC(=O)N4CCCC4)c(C)c3cc12	1.5	0.558
41	CCOC(=O)N1CCN(C(=O)c2cc3cccnc3n(Cc3ccccc3)c2=O)CC1	2.5	0.467
42	COc1cccc(CN2CCCCC2C(=O)O)c1 (stereo unspecified)	-0.6	0.606
43	O=C(O)c1ccc(-c2ccc(/C=N/N3C(=O)C4C(C3=O)C3C=CC4C34CC4)o2)cc1 (stereo unspecified)	-2.0	0.293
44	O=S(=O)(c1ccc(-c2cc(C(F)(F)F)no2)s1)N(CCN1CCOCC1)Cc1ccco1	2.3	/
45	CN1C2CCC1CC(OC(c1ccccc1)c1ccccc1)C2 (stereo unspecified)	-0.3	0.572&-0.045
46	NC(=S)c1ccccn1	3.0	/
47	CC(C1CC1)n1nccc1NC(=O)c1cccc(S(C)(=O)=O)c1 (stereo unspecified)	-0.3	/
48	CC1(C)CC(=O)C(N=Nc2ccc(SC(F)F)cc2)=C(O)C1	0.9	/
49	O=C(Nc1ccc2c(c1)OCCO2)C1Cc2ccccc2N1C(=O)OCc1ccccc1 (stereo unspecified)	0.4	/
50	CCOC(=O)c1ccc(O)cc1	/	-0.0305
51	COCCOC(=O)c1sc(C)c(C(=O)OC)c1N	0.6	/
52	O=C(CCN1CCCCC1)Nc1ccc(F)c(Cl)c1	/	-0.183
53	O=C(CCC1CCCCC1)Nc1ccc(O)cc1	-0.8	0.0765
54	Cc1cc(Cl)cc(Cl)c1CN(C)C(=O)c1cnc(Oc2ccccc2)cc1C(F)(F)F	/	-0.046
55	C[C@]12CCC3c4ccc(O)cc4CCC3C1C[C@@H](O)[C@@H]2O (stereo partly specified)	-2.1	-0.275&-0.728
56	Cc1nn(-c2ccccc2)c(C)c1/C=C/C(=O)OC(C)C(N)=O (stereo unspecified)	1.0	/
57	Nc1c(S(=O)(=O)c2ccccc2)c2nc3ccccc3nc2n1Cc1ccc(S(N)(=O)=O)cc1	0.9	/
58	COc1ccc(-n2nc3ccc(N)cc3n2)cc1	0.5	-2.05
59	N#CC12CC3CC(CC(C3)C1)C2	3.1	/
60	CCCC(CCC)(C(=O)O)C(=O)O	-1.1	-0.493

# Laid out differently: two of the compounds above
53) O=C(CCC1CCCCC1)Nc1ccc(O)cc1
  Ab BasE inh = -0.8 | LANA-nucl inh = 0.0765
54) Cc1cc(Cl)cc(Cl)c1CN(C)C(=O)c1cnc(Oc2ccccc2)cc1C(F)(F)F
  Ab BasE inh = / | LANA-nucl inh = -0.046

# Later entries
item	SMILES	Ab BasE inh	LANA-nucl inh
61	Cn1c(N)c(C(=O)c2ccc(Cl)c(S(=O)(=O)N3CCCCCC3)c2)c(=O)n(C)c1=O	0.5	/
62	O=C(C1c2ccccc2Oc2ccccc21)N1CCc2ccccc21	1.3	/
63	O=C(CSc1nnc(NC(=O)C2CC2)s1)Nc1ccccc1F	-0.5	-1.27
64	CCC(=O)N(Cc1ccc(OC)cc1)C1CC(=O)N(c2ccc(OC)cc2)C1=O (stereo unspecified)	1.2	-1.16
65	COc1ccc(C(=O)CS(=O)(=O)c2ccc3c(c2)OCCO3)cc1OC	0.0	/
66	CCC(=O)n1c2c(c3ccccc31)Nc1ccccc1N2	0.1	-0.681
67	Cc1ccc2cc(S(N)(=O)=O)ccc2n1	-0.4	-0.287
68	O=S1(=O)CCN(Cc2ccc(-n3cccn3)cc2)CC1	/	-0.849
69	COc1ccc(COCC(O)CN2CCCC(C(F)(F)F)C2)cc1 (stereo unspecified)	2.4	/
70	N#CC(C#N)=CN1CCCCC1	0.8	-0.032
71	Cc1[nH]ncc1CNC(=O)c1ccc(NC(=O)C2=CSCCO2)cc1	1.6	0.457
72	Fc1ccc(-c2nnc3n2N=C2CCCCC2S3)cc1 (stereo unspecified)	-0.8	/
73	CCC(Sc1nc2ccccc2s1)C(=O)Nc1cc(C)on1 (stereo unspecified)	1.0	0.527
74	O=C1C2C3C=CC(C3)C2C(=O)N1c1cccc2ccccc12 (stereo unspecified)	1.2	-0.104
75	O=C(COC(=O)CCc1ccccc1)Nc1ccc2c(c1)OCCO2	-1.5	/
76	CCn1c(SC)nnc1C1CCN(C(=O)NC2CCCCC2)CC1	1.2	-0.607
77	Cc1ccc(-c2ccc(CCC(=O)O)n2NC(=O)c2ccco2)cc1	1.3	-1.56
78	Cc1cc(C)n(C(C)CC(=O)O)n1 (stereo unspecified)	0.0	-0.502
79	C=CCN(C(=O)c1cc2ccccc2o1)C1(C(=O)Nc2ccc(F)cc2)CCN(C(C)=O)CC1	-0.5	/
80	Cc1ccc(NC(=S)N2CCn3c4c(c(=O)c5cc(C)ccc53)CCC42)cc1 (stereo unspecified)	1.2	/
81	Cc1onc(-c2ccccc2)c1C(=O)N1CCSC1=NCc1ccccc1	-0.6	/
82	CCOC(=O)C1=C(C)Nc2ccccc2N=C1NC(=O)C1CCN(S(=O)(=O)c2ccccc2)CC1	-0.7	/
83	N#Cc1ccccc1S(=O)(=O)N1CCN(C(=O)CCc2cccs2)CC1	0.8	/
84	CC(=O)O/N=C(\N)Cc1ccc(-c2csnn2)cc1	-2.7	0.136
85	CC(NC(=O)CN1CSCC1=O)C12CC3CC(CC(C3)C1)C2 (stereo unspecified)	1.4	/
86	CCN(CC)S(=O)(=O)c1cccc(C(=O)N/N=C/c2ccc(OC(=O)c3ccco3)c(OC)c2)c1	-1.9	/
87	Cc1ccc2cc(C#N)c(N3CCCN(S(=O)(=O)c4ccccc4)CC3)nc2c1	1.1	-1.04
88	Cn1nc(C(=O)N2CCCc3ccccc32)c2ccccc2c1=O	-0.5	0.665
89	CC(=O)NC12CC3CC(C1)CC(C(=O)OCC(=O)Nc1ccccc1C(=O)NC1CC1)(C3)C2	0.0	/
90	CC1(C)C2CCC1(CS(=O)(=O)NCc1ccncc1)C(=O)C2 (stereo unspecified)	3.2	-1.43
91	C(=C\c1ccco1)/C1=NN(Cc2ccccc2)CC1	-7.5	/
92	O=S(=O)(c1cccs1)N1CCC(C(c2ccccc2)c2ccccc2)CC1	1.0	/
93	O=C(CSc1cn[nH]n1)Nc1ccccc1	0.7	-0.498
94	O=C1CC(C(=O)NCCc2ccccc2)C2(CCCCC2)O1 (stereo unspecified)	-1.5	-0.889
95	CN(C)S(=O)(=O)N(C)c1ccc(O)cc1	4.3	0.389
96	O=c1[nH]c(=S)[nH]nc1-c1ccc(F)c(F)c1	3.7	/
97	CCCn1c(=O)cc(N)n(-c2ccccc2C)c1=O	3.3	0.207
98	CS(=O)(=O)Nc1cc(Cl)c(O)c(Br)c1	-0.8	/
99	CCC(CO)NS(=O)(=O)c1c(C)nc2sccn2c1=O (stereo unspecified)	2.6	-1.04
100	COCCn1c(N)c(C(=O)NS(=O)(=O)c2ccc(C)cc2)c(=O)[nH]c1=O	-4.8	/
101	Clc1ccc(Cc2ccc(Cl)nn2)cc1	/	-1.2
102	Cc1ccc2nc(CN(C)Cc3c(F)cccc3Cl)cc(=O)n2c1	-1.4	/
103	Cc1cc(C)nc(Nc2ncc(O)n2-c2ccc(Cl)c(Cl)c2)n1	0.9	/
104	N#Cc1ccccc1NC1=CC(=O)CCC1	-0.5	-1.76
105	COc1ccc(C(=O)c2ccc(OC)cc2O)c(O)c1	0.3	-0.116
106	COc1cc2c(cc1OC)C(NNC(=O)C(F)(F)C(F)F)=NC(C)(C)C2	0.6	0.209
107	c1ccc(NCn2cncn2)nc1	0.2	1.07
108	CCN(CC)CC(O)CN1CCn2c3c(c4cc(C)ccc42)CCCC31 (stereo unspecified)	-5.2	0.242
109	CC(C)OC(=O)C1C(=O)CC(C)(O)C(C(=O)OC(C)C)C1c1ccccc1 (stereo unspecified)	1.8	0.321
110	O=C(CCSc1nnc2c(n1)[nH]c1ccccc12)N1CCOCC1	3.0	0.665

# New compounds follow
item	SMILES	Ab BasE inh	LANA-nucl inh
111	O=C(O)c1nc(N2CCOCC2)ncc1Cl	1.3	/
112	Cc1ccc(-c2noc(CNC(C)C)n2)cc1	0.3	-0.318
113	CCN(CC)C(=O)CN1Cc2ccccc2C1=O	-0.8	-0.163
114	O=C(O)CCc1nnc(-c2ccccc2)o1	-0.7	/
115	COCCCN1CCc2nc(SCC(=O)Nc3cccc(C(F)(F)F)c3)[nH]c(=O)c2C1	2.8	-1.49
116	O=S(=O)(Nc1ccc2c(c1)CCC2)c1cccs1	0.9	-0.681
117	CCC1CC(C(F)(F)F)n2ncc(C(=O)O)c2N1 (stereo unspecified)	-2.0	0.197
118	Cn1c(N)c(C(=O)COc2ccccc2Cl)c(=O)n(C)c1=O	-0.1	/
119	Cn1c(SCC(=O)N(c2ccccc2)C2CCCCC2)nc2cc(S(N)(=O)=O)ccc21	0.3	/
120	CCC1(CC)C(=O)c2cc3ccccc3cc2C1=O	-1.1	/
121	O=C(NCc1cc2ccccc2s1)C1CN(C(c2ccccc2)c2ccccc2)C1	2.7	/

# Screening results (PubChem)

# An excerpt; the hit share may differ from the screen's.
